Compound activity deposited in PubChem by Broad Institute.
ID4 binder: binders of human ID4 protein, primary screen, biochemical, small molecule microarray, single point. 1.2% of 31,000 active. calls only. DNA-binding protein inhibitor ID-4 (Homo sapiens), P47928. AID 624137, 2012. Flag-ID4 binding, fluorescence F/B;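 active = spot signal over background at p below 0.07 in all four prints; compounds were printed on slides so no solution concentration is given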;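 note: a binder raises fluorescence above local background on the spot; about 2 pmol printed per array spot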
Target sequence (P47928 whole entry, looked up): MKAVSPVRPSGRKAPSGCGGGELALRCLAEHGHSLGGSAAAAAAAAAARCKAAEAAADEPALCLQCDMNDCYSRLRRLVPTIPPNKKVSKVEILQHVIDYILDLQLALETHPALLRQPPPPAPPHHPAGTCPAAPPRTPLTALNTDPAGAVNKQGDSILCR
Calls only. A portion of the library, so the mix of outcomes need not match the whole.

Screening COc1ccc(NC(=O)c2cccc(Cn3cc(Br)cn3)c2)cn1 returned ID4 binder inactive.
C[C@@H]1CN([C@@H](C)CO)C(=O)c2cccc(NC(=O)C3CC3)c2O[C@H]1CN(C)CC1CCCCC1 was read as ID4 binder inactive.
Screening C[C@]12CCC(=O)C=C1CC[C@@H]1[C@@H]2[C@@H](O)C[C@@]2(C)[C@H]1CC[C@]2(O)C(=O)CO returned ID4 binder inactive.
Cc1ccc(C(=O)N(Cc2nc(-c3ccc(Cl)cc3)no2)C(C)C)cc1[N+](=O)[O-] was read as ID4 binder inactive.
For COc1cc(OC)c(C2=NOC(C(=O)Nc3cc(C)nn3-c3ccccc3)C2)cc1Cl (stereo not drawn) the results were ID4 binder inactive.
Screening CO[C@H](CN(C)S(=O)(=O)c1cccc(Cl)c1)[C@@H](C)CN([C@@H](C)CO)S(=O)(=O)c1ccc(Cl)cc1 returned ID4 binder inactive.
For CCOC(=O)c1c(C)oc2ccc(OCc3cccc([N+](=O)[O-])c3)cc12 the results were ID4 binder inactive.
Screening CN1C(=O)C(O)(CC(=O)c2ccco2)c2cc(Cl)ccc21 (stereo not drawn) returned ID4 binder inactive.
Screening O=C1c2ccccc2C(=O)N1CCc1nc2c3c4c(sc3ncn2n1)CCCCC4 returned ID4 binder inactive.
CCc1nc(SCC(=O)Nc2c(C)cc(C)cc2[N+](=O)[O-])n[nH]1 was read as ID4 binder inactive.
`C[C@H](CO)N1C[C@H](C)[C@@H](CN(C)C(=O)C2CCCCC2)Oc2ncc(-c3ccccc3F)cc2C1=O` gave ID4 binder inactive.
COc1ccccc1-c1ccc2c(c1)O[C@H](CN(C)C)[C@@H](C)CN([C@H](C)CO)S2(=O)=O was read as ID4 binder inactive.
Screening C[C@@H]1CN([C@H](C)CO)S(=O)(=O)c2ccc(C#Cc3ccccc3F)cc2O[C@H]1CN(C)C returned ID4 binder inactive.
Cc1ccc(C)c(N2CCN(CC(=O)Nc3ccc([N+](=O)[O-])cc3C(=O)Nc3ccccc3F)CC2)c1 was read as ID4 binder inactive.
Screening Cc1cc(C)c(NC(=O)CN(C)S(=O)(=O)c2ccc(Cl)cc2)c(C)c1 returned ID4 binder inactive.
`C[C@@H]1CN([C@@H](C)CO)C(=O)c2cc(C#CC3CCCC3)cnc2O[C@@H]1CN(C)Cc1ccncc1` gave ID4 binder inactive.
For CC(C)(C)NC(=O)c1ccc(-n2nc(C(F)(F)F)c3c2-c2ccoc2CC3)cc1 the results were ID4 binder inactive.
Screening Cc1cccc(OCC(=O)Nc2cccc(-c3nc4cc(C)cc(C)c4o3)c2)c1 returned ID4 binder inactive.
CCCNC(=O)N[C@@H]1CC[C@@H](CC(=O)NC2CCC2)O[C@@H]1CO was read as ID4 binder inactive.
`CC(C)CC#Cc1cnc2c(c1)C(=O)N([C@H](C)CO)C[C@@H](C)[C@H](CN(C)C(=O)c1ccccc1)O2` gave ID4 binder inactive.
Screening CCOc1ccc(NC(=O)C(C)Sc2nnnn2-c2ccccc2)cc1 (stereo not drawn) returned ID4 binder inactive.
COc1cccc(NC(=O)CN(c2cc(Cl)c(Cl)cc2Cl)S(C)(=O)=O)c1 was read as ID4 binder inactive.
`CS(=O)(=O)N(CC(=O)Nc1c(F)cccc1F)c1ccc(Br)cc1` gave ID4 binder inactive.
For C[C@H](CO)N1C[C@H](C)[C@@H](CN(C)Cc2ccccc2F)Oc2ncc(-c3ccccc3F)cc2C1=O the results were ID4 binder inactive.
C/C=C/c1cnc2c(c1)C(=O)N([C@@H](C)CO)C[C@H](C)[C@H](CN(C)C(=O)Nc1ccc(F)cc1)O2 was read as ID4 binder inactive.
O=C(COc1ccccc1[N+](=O)[O-])Nc1ccc2oc(-c3cccc4ccccc34)nc2c1 was read as ID4 binder inactive.
For C[C@@H](NC(=O)C[C@@H]1C=C[C@@H](NC(=O)C2CC2)[C@@H](CO)O1)c1ccccc1 the results were ID4 binder inactive.
COc1ccc(NC(=O)CCN2C(=O)c3ccccc3C2=O)cc1Cl was read as ID4 binder inactive.
`COc1cccc(-c2cnc3c(c2)C(=O)N([C@@H](C)CO)C[C@@H](C)[C@@H](CN(C)C(=O)CC2CC2)O3)c1` gave ID4 binder inactive.
`O=C(CSc1nc2scc(-c3ccco3)c2c(=O)n1-c1ccccc1)N1CCOCC1` gave ID4 binder inactive.
CCCNC(=O)N(C)C[C@H]1Oc2ncc(Br)cc2C(=O)N([C@@H](C)CO)C[C@@H]1C was read as ID4 binder inactive.
For CN(CC(=O)Nc1ccc(Cl)cc1C(F)(F)F)S(=O)(=O)c1ccc(Cl)cc1 the results were ID4 binder inactive.
For CCCNC(=O)N(C)C[C@@H]1Oc2cc(-c3cccnc3)ccc2S(=O)(=O)N([C@@H](C)CO)C[C@@H]1C the results were ID4 binder inactive.
CCCC#Cc1cnc2c(c1)C(=O)N([C@H](C)CO)C[C@@H](C)[C@H](CN(C)Cc1ccccc1)O2 was read as ID4 binder inactive.
Screening COc1cccc(NC(=O)CSc2nnc(-c3ccco3)n2-c2ccccc2)c1 returned ID4 binder inactive.
C/C=C/c1ccc2c(c1)O[C@@H](CN(C)CC1CCOCC1)[C@@H](C)CN([C@@H](C)CO)S2(=O)=O was read as ID4 binder inactive.
For CNC[C@H]1Oc2ncc(Br)cc2C(=O)N([C@H](C)CO)C[C@H]1C the results were ID4 binder inactive.
COC(=O)c1ccccc1NC(=O)CN(C)S(=O)(=O)c1ccc(F)cc1 was read as ID4 binder inactive.
`Cc1ccc(OCC(=O)Nc2ncc(C(F)(F)F)cc2Cl)c(Br)c1` gave ID4 binder inactive.
For COCCNC(=O)C[C@H]1C[C@H]2c3cc(N(C)C)ccc3O[C@H]2[C@@H](CO)O1 the results were ID4 binder inactive.
For Cc1onc(-c2ccccc2)c1C(=O)Nc1cccc(S(=O)(=O)N(C)C)c1 the results were ID4 binder inactive.
For O=C(N[C@@H]1CC[C@H](CC(=O)N2CCc3ccccc3C2)O[C@@H]1CO)C1CC1 the results were ID4 binder inactive.
O=C(O)c1ccc2c(c1)OCO2 was read as ID4 binder inactive.
Screening O=c1c(C=Nc2ccccc2)c(O)c2c(n1-c1ccccc1)CCCC2 returned ID4 binder inactive.
CCCC#Cc1ccc2c(c1)O[C@@H](CN(C)C(=O)Nc1ccc(OC)cc1)[C@@H](C)CN([C@@H](C)CO)S2(=O)=O was read as ID4 binder inactive.
For C/C=C/c1ccc2c(c1)O[C@@H](CN(C)C(=O)c1cccnc1)[C@@H](C)CN([C@@H](C)CO)S2(=O)=O the results were ID4 binder inactive.
CCN(CC)CCN1C(=O)c2ccccc2NC1c1ccc(Br)cc1 (stereo not drawn) was read as ID4 binder inactive.
For COC(=O)c1ccc(NC(=O)CSc2ncn(-c3ccccc3)n2)cc1 the results were ID4 binder inactive.
`COc1ccccc1NC(=O)C1=C(C)Nc2ncnn2C1c1ccncc1` (stereo not drawn) gave ID4 binder inactive.
Screening CC1(C)CC(N(Cc2cccs2)C(=O)c2ccco2)CCO1 (stereo not drawn) returned ID4 binder inactive.
For Cc1sc2ncnc(SCC(=O)NCC3CCCO3)c2c1-c1ccc(Cl)cc1 (stereo not drawn) the results were ID4 binder inactive.
Screening COc1ccc(NC(=O)CSc2nc3c(cc2C#N)CCCCC3)cc1 returned ID4 binder inactive.
`CCCC#Cc1cnc2c(c1)C(=O)N([C@H](C)CO)C[C@H](C)[C@H](CN(C)C(=O)Nc1cc(F)ccc1F)O2` gave ID4 binder inactive.
For CC(C)CC#Cc1cnc2c(c1)C(=O)N([C@@H](C)CO)C[C@H](C)[C@@H](CN(C)C(=O)Cc1ccccc1)O2 the results were ID4 binder inactive.
COC(=O)[C@@H]1OC(=O)C2OC23[C@@]1(C)CCC1[C@]2(C)C(C[C@@H](O)[C@]13C)C(C)(C)[C@H](OC(C)=O)C[C@@H]2OC(C)=O (stereo partly drawn) was read as ID4 binder inactive.
For CCCN(C)C[C@H]1OCc2cnnn2CCCC(=O)N([C@H](C)CO)C[C@@H]1C the results were ID4 binder inactive.
For Cc1cccc(OCC(=O)Nc2cccc(-c3nnc(-c4ccccc4)o3)c2)c1C the results were ID4 binder inactive.
`COc1ccc(OC)c2c1CC(C)(C)N=C2SC` gave ID4 binder inactive.
COc1ccccc1NC(=O)CSc1nc2sc(C)c(C)c2c(=O)n1-c1ccc(C)c(C)c1 was read as ID4 binder inactive.
Screening CCOC(=O)c1ccc(NC(=O)CN2C(=O)c3ccccc3S2(=O)=O)cc1 returned ID4 binder inactive.

Among those listed so far, these have a nitro group on carbon:
Cc1ccc(C(=O)N(Cc2nc(-c3ccc(Cl)cc3)no2)C(C)C)cc1[N+](=O)[O-] was read as ID4 binder inactive.
For CCOC(=O)c1c(C)oc2ccc(OCc3cccc([N+](=O)[O-])c3)cc12 the results were ID4 binder inactive.
CCc1nc(SCC(=O)Nc2c(C)cc(C)cc2[N+](=O)[O-])n[nH]1 was read as ID4 binder inactive.
Cc1ccc(C)c(N2CCN(CC(=O)Nc3ccc([N+](=O)[O-])cc3C(=O)Nc3ccccc3F)CC2)c1 was read as ID4 binder inactive.
O=C(COc1ccccc1[N+](=O)[O-])Nc1ccc2oc(-c3cccc4ccccc34)nc2c1 was read as ID4 binder inactive.

7 compounds already listed, arranged by SMILES length, descending.
COC(=O)[C@@H]1OC(=O)C2OC23[C@@]1(C)CCC1[C@]2(C)C(C[C@@H](O)[C@]13C)C(C)(C)[C@H](OC(C)=O)C[C@@H]2OC(C)=O (stereo partly drawn) was read as ID4 binder inactive.
CCCC#Cc1ccc2c(c1)O[C@@H](CN(C)C(=O)Nc1ccc(OC)cc1)[C@@H](C)CN([C@@H](C)CO)S2(=O)=O was read as ID4 binder inactive.
For CC(C)CC#Cc1cnc2c(c1)C(=O)N([C@@H](C)CO)C[C@H](C)[C@@H](CN(C)C(=O)Cc1ccccc1)O2 the results were ID4 binder inactive.
For C/C=C/c1ccc2c(c1)O[C@@H](CN(C)C(=O)c1cccnc1)[C@@H](C)CN([C@@H](C)CO)S2(=O)=O the results were ID4 binder inactive.
For Cc1onc(-c2ccccc2)c1C(=O)Nc1cccc(S(=O)(=O)N(C)C)c1 the results were ID4 binder inactive.
Screening CCOC(=O)c1ccc(NC(=O)CN2C(=O)c3ccccc3S2(=O)=O)cc1 returned ID4 binder inactive.
CCN(CC)CCN1C(=O)c2ccccc2NC1c1ccc(Br)cc1 (stereo not drawn) was read as ID4 binder inactive.

Additional structures
Screening CC(C)(C)C1=NOC(O)(C(F)(F)F)C1 (stereo not drawn) returned ID4 binder inactive.
Screening COc1ccccc1S(=O)(=O)N[C@@H]1CC[C@H](CC(=O)N2CCCCC2)O[C@@H]1CO returned ID4 binder inactive.
For COC(=O)CNC(=O)c1cn(-c2ccccc2)nc1-c1ccccc1 the results were ID4 binder inactive.
For CC(C)[C@H](C)NC(=O)N(C)C[C@@H]1OCc2ccccc2-c2ccccc2C(=O)N([C@@H](C)CO)C[C@@H]1C the results were ID4 binder inactive.
COc1ccccc1Nc1nc(N)nc(CN2CCC(Cc3ccccc3)CC2)n1 was read as ID4 binder inactive.
COc1cccc(NC(=O)c2ccc(NCc3cccnc3)c([N+](=O)[O-])c2)c1 was read as ID4 binder inactive.
For CC1(C)OC[C@@H]([C@H](O)P(=O)(c2ccccc2)c2ccccc2)O1 the results were ID4 binder inactive.
N#Cc1cccc(NC(=O)CCCN2C(=O)c3ccccc3C2=O)c1 was read as ID4 binder active.
For Cc1ccc(NC(=O)CSc2nnc(C)n2-c2ccc(Cl)cc2)c(Br)c1 the results were ID4 binder inactive.
COc1ccc(C(=O)n2nc(-c3ccc(Cl)cc3)nc2NCc2ccco2)cc1OC was read as ID4 binder inactive.
`CCC(=O)N[C@H]1CC[C@H](CC(=O)OC)O[C@@H]1CO` gave ID4 binder inactive.
For C/C=C/c1cnc2c(c1)C(=O)N([C@@H](C)CO)C[C@H](C)[C@@H](CN(C)C(=O)CCN1CCCCC1)O2 the results were ID4 binder inactive.
COc1ccc(C(=O)CSc2nc3cc(C)c(C)cc3[nH]2)cc1 was read as ID4 binder inactive.
For CC(=O)c1ccc(NC(=O)CSc2n[nH]c(C)n2)cc1 the results were ID4 binder inactive.
For O=C(O)CCC(=O)Nc1cccc(C(F)(F)F)c1 the results were ID4 binder inactive.
For O=C(COc1ccc(C(=O)Nc2ccc(Cl)cc2)cc1)Nc1ccccc1C(F)(F)F the results were ID4 binder inactive.
`COc1ccc(NC(=O)CSc2nc(N3CCCCC3)nc(N3CCCCC3)n2)cc1` gave ID4 binder inactive.
For O=C(COc1cccc2ccccc12)Nc1cc(C(=O)O)cc(C(=O)O)c1 the results were ID4 binder inactive.
`COC(=O)c1ccc(Cl)c(NC(=O)Cc2ccccc2[N+](=O)[O-])c1` gave ID4 binder inactive.
Screening C[C@H]1CN([C@@H](C)CO)C(=O)c2cc(C#Cc3ccccc3)cnc2O[C@@H]1CN(C)C(=O)c1ccccc1 returned ID4 binder inactive.
`COc1ccc(-c2cc(C(F)(F)F)n3nc(C(=O)NCc4ccco4)cc3n2)cc1OC` gave ID4 binder inactive.
COc1ccc(-n2nnnc2SCC(=O)Nc2ccc(F)cc2)cc1 was read as ID4 binder inactive.
`Cc1cc(C)c(NC(=O)CSc2nc(-c3ccccc3)cc(=O)[nH]2)c([N+](=O)[O-])c1` gave ID4 binder inactive.
For COc1ccc(NC(=O)NCCc2ccccc2OC)c(OC)c1 the results were ID4 binder inactive.
For COc1ccc(-c2nnc(SCCC(=O)O)n2-c2ccccc2)cc1OC the results were ID4 binder inactive.
`CCc1ccc2oc(-c3ccc(C)c(NC(=O)COc4ccc(Cl)cc4)c3)nc2c1` gave ID4 binder inactive.
For CS(=O)(=O)N(CC(=O)Nc1ccccc1C(=O)N1CCCC1)c1cccc(F)c1 the results were ID4 binder inactive.
For CC(=O)c1cc(C)ccc1OC(=O)CCN1C(=O)C2C3c4ccccc4C(c4ccccc43)C2C1=O (stereo not drawn) the results were ID4 binder inactive.
Screening C[C@@H]1CN([C@H](C)CO)S(=O)(=O)c2ccc(-c3cccc(C#N)c3)cc2O[C@@H]1CN(C)Cc1ccccn1 returned ID4 binder inactive.

2 successive compounds already listed, for reference:
`COc1ccc(-c2cc(C(F)(F)F)n3nc(C(=O)NCc4ccco4)cc3n2)cc1OC` gave ID4 binder inactive.
COc1ccc(-n2nnnc2SCC(=O)Nc2ccc(F)cc2)cc1 was read as ID4 binder inactive.
